TRPML1 inh: blocks the human TRPML1 channel; 390,000 tested, 0.02% active; Q9GZU1; TRPML1-inducible cells, Ca2+ dye fluorescence, FDSS; stronger effect = lower value; inhibition of EC80 agonist-evoked calcium signal; activity change, negative = inhibition, % (no concentration beside the values); in the data active means activity change below about -50%; inconclusive means about -30% to -50%; inactive means above about -30%;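 also: stimulus is agonist 54-4 at its EC80 concentration; % is scaled to controls: 0 for no effect and ±100 for the full control effect; compound concentration not given in the record; the text of the record puts the active cut at -80%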
Target sequence (Q9GZU1 whole entry, looked up): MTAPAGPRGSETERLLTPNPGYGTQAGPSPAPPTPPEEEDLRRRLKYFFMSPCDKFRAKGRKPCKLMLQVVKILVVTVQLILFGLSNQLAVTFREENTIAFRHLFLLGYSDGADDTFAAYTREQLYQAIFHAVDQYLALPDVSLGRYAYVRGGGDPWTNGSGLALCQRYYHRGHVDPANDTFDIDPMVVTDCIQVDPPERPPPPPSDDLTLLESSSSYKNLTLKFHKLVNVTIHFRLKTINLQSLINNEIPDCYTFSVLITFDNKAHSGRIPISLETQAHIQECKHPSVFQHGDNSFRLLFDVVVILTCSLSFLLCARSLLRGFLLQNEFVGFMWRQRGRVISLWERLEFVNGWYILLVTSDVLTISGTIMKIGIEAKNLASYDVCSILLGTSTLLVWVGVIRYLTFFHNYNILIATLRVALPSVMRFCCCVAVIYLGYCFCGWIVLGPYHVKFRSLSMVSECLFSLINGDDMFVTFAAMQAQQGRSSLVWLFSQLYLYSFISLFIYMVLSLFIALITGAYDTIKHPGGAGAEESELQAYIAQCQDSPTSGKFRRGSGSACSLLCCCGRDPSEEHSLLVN
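Tet-induced TRPML1-DL cells loaded with Ca8 no-wash calcium dye were read kinetically on FDSS. Compound addition was followed by EC80 agonist 54-4 (4 uM final); inhibition was read over 110 s.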
gsp antag: gsp mutant antagonism; gsp-mutant cells, cAMP HTRF, 30 min; control for the full effect not named in the record; Potency, µM (top dose mostly 76.9 µM), without a hit: at the top dose activity change, negative = inhibition, actives largely listed as inhibitors; 340,000 tested, 0.4% active; AID 624288; active = falling curve of any shape with a large fitted effect; inconclusive = falling curve, mostly with a smaller effect; inactive = flat or rising curve; cell line not stated here;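 also: intracellular cAMP measured with PDE inhibitor Ro 20-1724 present during compound exposure; potency is read from the fitted curve at half-maximal effect; % is scaled to controls: 0 for no effect and ±100 for the full control effect; nearly all actives have a fitted effect of over 65% in size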
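Cells in G418 medium, seeded 16-24 h, 37C; buffer exchange to DPBS + 1 mM CaCl2, 0.5 mM MgCl2, 0.05% BSA; cpds in DMSO + […] (300 uM stock), 30 min 37C; HTRF cAMP detection.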
TRPML1 agonist: activates the human TRPML1 channel; activation, % (no concentration beside the values); 410,000 tested, 0.12% active; AID 624414; TRPML1-expressing cells, Ca2+ dye fluorescence, FDSS; host cell line not named in the record; reference of the full effect not given here; in the data active = activation above about 50%; inconclusive = about 30% to 50%; inactive = below about 30%; also: 0% is about no effect; the text of the record puts the active cut at 80%
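Cells: TRPML1-DL, 1X Tet inducer, ~16 h at 37 degrees C/5% CO2. Dye: ABD Ca8 no-wash + quencher, 45-90 min RT. Read: 10 s baseline, compound add, 110 s agonist phase; 54-4 EC80 (4uM final), 110 s antagonist phase.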
Menin MLL FP FL: displaces fluorescein MLL peptide from human menin | Fluorescence polarization, fluorescein-MLL peptide displacement from menin | FP activity change, % at 61.4 µM | 290,000 tested, under 10 active | AID 1766; inconclusive = falling polarisation curve, or a change in total fluorescence; inactive = total fluorescence flat and polarisation flat or rising; no compound was filed as active; the % refers to the polarisation; negative = inhibition;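 also: % of control where 0% means no effect; inhibitors lower the polarisation; unlabelled MLL peptide was the positive control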
gsp ag: agonists of gsp mutant (McCune-Albright syndrome); 340,000 tested, 0.13% active; gsp mutant cells, cAMP HTRF, 30 min; control for the full effect not named in the record; Potency, µM (top dose mostly 76.9 µM), inactives show at the highest dose activation (cAMP increase), actives largely listed as activators; active = well fitted activation curve with a large enough effect; inconclusive = small, poorly fitted or top-dose-only effect, or another doubt; inactive = no such curve, though single readings can be large or run the other way; cell line not stated here;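 also: phosphodiesterase inhibitor Ro 20-1724 added with compounds to block cAMP breakdown; potency is read from the fitted curve at half-maximal effect; nearly all actives have a fitted effect of over 60% in size; about a fifth of the inactives were tested at one dose only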
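Cells stably selected in G418 were plated at 2000/well, grown 16-24 hr, then given compounds in DMSO with the PDE inhibitor […] (300 uM solution added) for 30 min at 37C; cAMP was read by HTRF.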
ClpP mod: qHTS Assay for Activators of ClpP; purified B. subtilis ClpP, FRET peptide cleavage, 20 min; Potency, µM (top dose mostly 57.5 µM), for inactives: top-dose activity change, negative = active; 340,000 tested, 1.9% active; ATP-dependent Clp protease proteolytic subunit (Bacillus subtilis (strain 168)), P80244; active = well fitted falling curve with a large enough effect; inconclusive = small, poorly fitted or top-dose-only effect; inactive = no such curve, though single readings can be large or run the other way; also: potency is read from the fitted curve at half-maximal effect; the source files actives as falling curves though it sought activators and does not explain the sign; nearly all actives have a fitted effect of over 65% in size; many hits overshoot -100%
Target sequence (P80244 whole entry, looked up): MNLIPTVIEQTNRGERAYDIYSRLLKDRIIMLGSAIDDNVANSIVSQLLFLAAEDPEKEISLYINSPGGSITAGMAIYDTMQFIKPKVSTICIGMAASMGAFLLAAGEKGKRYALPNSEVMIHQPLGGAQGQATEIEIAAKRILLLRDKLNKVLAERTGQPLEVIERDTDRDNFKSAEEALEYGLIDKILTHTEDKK
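Purified B. subtilis ClpP, 10 microg/mL final in Tris/HCl pH8 with KCl, BSA, glycerol and Tween-20, cleaved an Abz/nitrotyrosine-quenched decapeptide. Fluorescence (ex 320, em 430) was read at 0 and 20 min at room temperature. Delta was normalized to 5.8 microM ADEP and DMSO/no-enzyme controls.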
* = called active by the depositor; ? = inconclusive; . = not tested or not shown; [ ] = dose if it differs, or a comment.

Fields – gsp antag | ClpP mod | TRPML1 agonist | TRPML1 inh | Menin MLL FP FL | gsp ag
> O=C(NC(O)C(=O)c1ccccc1)c1ccc(F)cc1 (configuration not stated)
    17.8% | . | -0.2 | -1.4 | 9.2 | 0.9%[15.4 µM]
> O=C(CC(NC(=O)OCc1ccccc1)C(=O)OCc1ccccc1)OCc1ccccc1 (configuration not stated)
    -18.2% | -1.7% | 5.7 | 29.7 | . | -3.8%
> CCOc1ccc(Cn2nnc(C(=O)NCc3ccc(OC)cc3)c2N)cc1
    -22.5% | 1.6% | 2.5 | 15.2 | 0.4 | -37.9%[inhibitor]
> C=CCn1c(=N)n(CC(=O)c2ccccc2)c2ccccc21
    -1.1% | -0.2% | -0.7 | 18.2 | 1.6 | 4.2%[15.4 µM]
> Cc1cc(S(=O)(=O)Nc2cc3c(cc2N2CCOCC2)n(C)c(=O)n3C)ccc1F
    . | -0.3% | -0.3 | -17.1 | . | .
> COc1ccc(Cl)cc1NC(=O)c1cc(S(=O)(=O)N2CCc3ccccc32)cn1C
    . | -17.8% | -0.4 | -1.7 | . | .
> Cc1cc(NC(=O)CSc2nc3c([nH]c4ccccc43)c(=O)n2-c2ccccc2)no1
    . | ? | 1.0 | 5.8 | . | .
> Cn1ncc([N+](=O)[O-])c1C(=O)N/N=C/c1cccc([N+](=O)[O-])c1
    -2.1% | . | -0.6 | 2.8 | -2.9 | 22.0%[15.4 µM]
> O=S(=O)(c1ccc(Cl)cc1)N1CCN(c2ncccn2)CC1
    6.9% | -4.2% | -0.7 | -3.0 | 2.6 | 6.3%[15.4 µM]
> CCn1cc(Cl)c(C(=O)N2N=C3/C(=C/c4cccs4)CCCC3C2c2cccs2)n1 (configuration not stated)
    ? | -29.4% | 0.3 | 23.2 | -4.0 | -49.2%[inhibitor]
> CC1CCCC(NC(=O)CSc2nnnn2C)C1C (configuration not stated)
    9.2% | -0.2% | -0.3 | 4.0 | -2.1 | -17.0%
> COc1ccc(CNC(=O)NCCc2c[nH]c3ccccc23)cc1
    5.8% | -2.1% | -0.7 | 51.1 | -1.2 | 7.2%
> COc1ccccc1CNC(=O)CSc1nc(=O)[nH]c2c1CCC2
    . | -0.9% | -1.1 | 11.2 | . | .
> C[C@@H]1CN([C@@H](C)CO)C(=O)c2cc(NC(=O)C3CC3)ccc2O[C@@H]1CN(C)C(=O)NC1CCCCC1
    5.1% | -6.3% | 0.1 | -3.3 | . | 4.5%
> O=C1C=C(c2ccc(-c3ccccc3)cc2)C[C@@H](c2ccc(F)cc2)C1
    15.1% | -1.2% | -0.7 | 4.6 | . | ?
> CCc1ccc(CN(C)C(=O)c2cc(S(=O)(=O)N3CCOCC3)ccc2N2CCCC2)cc1
    -23.3% | -4.2% | 0.5 | 16.1 | . | 1.0%
> Cc1cccc(NC(NC(=O)c2ccccn2)C(Cl)(Cl)Cl)c1 (configuration not stated)
    -4.7% | -1.0% | 0.4 | 24.7 | 0.7 | -0.1%
> O=C(NCCN1C(=O)S/C(=C\c2cccc(Cl)c2Cl)C1=O)C1=COCCO1
    13.5% | -8.2% | -0.5 | 3.4 | 3.0 | -2.6%[15.4 µM]
> COc1ccc(-n2c(Cc3cccn3C)nnc2SCC(=O)Nc2ccc(F)cc2)cc1
    -15.9% | 0.9% | 1.6 | 24.8 | -1.2 | -28.1%
> Cc1cc(C)n(-c2nc(NCc3cccnc3)c3c4c(sc3n2)COC(C)(C)C4)n1
    6.4% | 23.9% | 0.6 | -23.4 | 1.1 | -5.8%

Structures shown so far that contain a Cl atom:
Fields – gsp antag | ClpP mod | TRPML1 agonist | TRPML1 inh | Menin MLL FP FL | gsp ag
> COc1ccc(Cl)cc1NC(=O)c1cc(S(=O)(=O)N2CCc3ccccc32)cn1C
    . | -17.8% | -0.4 | -1.7 | . | .
> O=S(=O)(c1ccc(Cl)cc1)N1CCN(c2ncccn2)CC1
    6.9% | -4.2% | -0.7 | -3.0 | 2.6 | 6.3%[15.4 µM]
> CCn1cc(Cl)c(C(=O)N2N=C3/C(=C/c4cccs4)CCCC3C2c2cccs2)n1 (configuration not stated)
    ? | -29.4% | 0.3 | 23.2 | -4.0 | -49.2%[inhibitor]
> Cc1cccc(NC(NC(=O)c2ccccn2)C(Cl)(Cl)Cl)c1 (configuration not stated)
    -4.7% | -1.0% | 0.4 | 24.7 | 0.7 | -0.1%
> O=C(NCCN1C(=O)S/C(=C\c2cccc(Cl)c2Cl)C1=O)C1=COCCO1
    13.5% | -8.2% | -0.5 | 3.4 | 3.0 | -2.6%[15.4 µM]

Later entries:
Fields – gsp antag | ClpP mod | TRPML1 agonist | TRPML1 inh | Menin MLL FP FL | gsp ag
> O=C(CCSc1ccccc1)NCc1cccnc1
    5.2% | 19.3% | -0.3 | 11.7 | 3.2 | -29.5%
> Fc1ccc(Br)cc1/C=N/n1cnnc1
    3.2% | -1.4% | -0.9 | -2.6 | 0.3 | ?
> COc1ccc(NC(=O)c2cc(-c3cc(OC)c(OC)c(OC)c3)nc3ccccc23)c(OC)c1
    9.7% | . | 2.3 | -5.4 | -8.1 | 24.2%
> Cc1cccc(C(=O)NNC(=O)c2ccccc2)c1
    15.9% | 6.0% | -0.4 | 22.7 | 6.2 | -6.8%
> CN(C)S(=O)(=O)c1cccc(NC(=S)N/N=C/C(=O)c2ccccc2)c1
    0.0% | -17.1% | 0.9 | 22.5 | 4.1 | 16.3%
> CN(c1ccc(F)cc1)S(=O)(=O)c1ccc2[nH]cc(C(=O)O)c(=O)c2c1
    4.0% | -20.6% | 0.3 | -19.5 | 1.5 | -12.7%
> Cc1nn(-c2ccccc2)c(Cl)c1/C=N/Nc1nncc(=O)[nH]1
    -12.6% | -0.4% | 0.6 | 23.0 | 6.7 | -1.6%
> Cc1cccc(N2CCN(C(=O)C(C)C)CC2)c1C
    -9.0% | 0.4% | -1.1 | -5.8 | 1.1 | -29.3%
> COc1cccc(/C=N/n2cnnc2)c1OCc1ccccc1
    -5.3% | -9.2% | -0.3 | -2.8 | 1.0 | -5.3%
> CCOc1ccc2nc(N3CCCC(C(=O)NCCc4ccc(C)cc4)C3)sc2c1 (configuration not stated)
    . | 1.0% | 1.1 | -3.0 | . | .
> CCCCCCCNC(=O)C1(CC2CC(c3cccc(Br)c3)=NO2)CCN(C(=O)Cc2ccc(F)cc2)CC1 (configuration not stated)
    -10.8% | 0.4% | 1.2 | 38.9 | . | -6.0%
> CC(C)(C)c1ccc(C(=O)N2CCC3(CC2)NCCc2[nH]cnc23)cc1
    3.4% | 2.5% | -0.6 | 45.0 | . | 17.2%
> O=C1Cc2ccccc2Sc2ccc(O)cc21
    -5.2% | -0.4% | 0.1 | -20.5 | 2.1 | 2.8%[15.4 µM]
> Cc1ccc(Cl)cc1NC(=O)C1CCN(S(=O)(=O)c2cccc3nonc23)CC1
    . | 0.8% | -0.6 | 5.4 | . | .
> COc1ccc(OC)c(CNc2ncnc3c2nc2n3CCCC2)c1
    . | -7.1% | 0.5 | -14.3 | . | .
> Cc1ccccc1-c1cc(C(=O)NCc2ccc3c(c2)OCO3)n(CC2CC(c3cccnc3)=NO2)n1 (configuration not stated)
    ? | -3.0% | 1.9 | 34.5 | . | .
> COc1ccc(S(=O)(=O)N(C)CC(=O)N2CCCCCC2)cc1
    -0.8% | -0.6% | 0.2 | -0.4 | -1.6 | -9.1%[15.4 µM]
> Cc1cccc(CC(C)NC(=O)c2oc3c(F)cccc3c2C)n1 (configuration not stated)
    -6.8% | . | -0.6 | 5.8 | -4.4 | -26.5%
> Cn1c(=NC(=O)c2ccc(S(=O)(=O)N3CCCc4ccccc43)cc2)sc2cc(F)ccc21
    . | -7.4% | -0.3 | -26.7 | . | .
> CCOc1ncccc1C(=O)OCC(=O)c1cc(OC)ccc1OC
    -14.6% | -2.0% | 0.8 | 18.8 | -3.1 | -53.6%[inhibitor]
> CCOc1ccc(NC(=S)NCCCN2CCN(C3CCCCC3)CC2)cc1
    -3.8% | 1.5% | -0.4 | 4.8 | -1.9 | 10.8%[15.4 µM]
> Cc1cccc(C)c1NC(=O)CN1CCCC1
    4.4% | . | 0.3 | 14.7 | -2.6 | 2.4%
> COc1cc(-c2noc(-c3ccc(NCCc4ccccc4)c([N+](=O)[O-])c3)n2)cc(OC)c1OC
    . | 0.1% | -0.7 | -22.2 | . | .
> CC(C)(C)c1cc(C(=O)Nc2ccc(F)cc2)n(Cc2ccc(F)cc2)n1
    -14.6% | -0.8% | 0.7 | 5.8 | 1.4 | -2.4%
> COc1cccc(CN2CCNC(=O)C2CC(=O)NC2CCCC2)c1OC (configuration not stated)
    6.5% | -10.7% | 0.8 | -6.7 | -0.1 | -1.3%[15.4 µM]
> CCOc1ccccc1CNC(=O)CCn1cccn1
    . | -1.0% | 1.8 | -0.1 | . | .
> O=C(NCCc1nnc2ccc(SCC(=O)N3CCOCC3)nn12)c1ccccc1
    12.0% | -11.5% | -0.6 | 14.4 | -1.2 | ?
> CCOc1ccc(-c2cc(C(=O)NN)[nH]n2)cc1
    9.1% | 0.3% | -0.7 | 1.1 | 3.4 | 0.4%[15.4 µM]
> CC(C)NC(=O)c1ccccc1NC(=O)CCS(=O)(=O)Cc1ccccc1
    -10.5% | -0.4% | -0.2 | 1.1 | 4.4 | -9.2%
> CC(C)NS(=O)(=O)c1ccc(OCC(=O)NCc2ccc3c(c2)OCO3)c(Cl)c1
    2.1% | -0.9% | 0.2 | ? | -2.7 | 2.1%
> Cc1c(C=O)c2ccccc2n1CCOc1ccccc1F
    1.6% | 0.8% | -0.9 | -6.9 | -3.8 | -25.1%
> CCn1c(COc2ccccc2Cl)nnc1SCC(=O)Nc1ncccc1C
    6.4% | -2.8% | 2.3 | 16.6 | 1.4 | -7.4%
> CC(Sc1nnc(C2CC2)n1C1CC1)C(=O)Nc1ccccc1C#N (configuration not stated)
    1.5% | -1.3% | 0.2 | -3.1 | . | -0.2%[15.4 µM]
> Cc1ccc(N2CCN(/N=C/c3c(C)nn(-c4ccccc4)c3Cl)CC2)cc1
    6.9% | -1.3% | 0.2 | -9.9 | 7.5 | 18.3%
> CC(C)c1ccc(NC2CCCN(C(=O)CN3CCCC3=O)C2)cc1 (configuration not stated)
    -17.2% | -0.5% | 0.4 | 6.5 | 7.8 | -84.2%[inhibitor]
> COc1ccc(S(=O)(=O)N(Cc2nc(-c3cccc(C)c3)no2)C2CCCCC2)cc1
    . | -0.9% | 3.6 | 27.4 | . | .
> Cc1ccc(C)c(NC(=S)N2CCC(NC(=O)c3cccc(F)c3)CC2)c1
    -3.6% | . | 0.9 | -10.2 | -3.7 | ?
> COc1ccc(-c2nc3sc(CCNC(=O)c4cccc(C(F)(F)F)c4)c(C)n3n2)cc1
    . | 1.4% | 0.2 | -6.4 | . | .

Assay outcomes (PubChem)
